# Compound activity (PubChem)
# Lassa entry inh: blocks Lassa virus binding to or entry into cells. Lassa virus pseudotype entry inhibition, cell reporter; control for the full effect not named in the record. Potency, µM (highest dose often 37.9 µM), without a hit: at the top dose activity change, negative = inhibition, actives largely listed as inhibitors. 1.2% of 300,000 active. AID 540256; active means well fitted inhibition curve with a large enough effect; inconclusive means small, poorly fitted or top-dose-only effect, or effect the other way; inactive means flat fitted curve, though single readings scatter; tested in HEK293 cells; note: % is set by controls: 0 for no effect and ±100 for the full control effect; nearly all actives have a fitted effect of over 50% in size; luciferase read-out
# Cruzain Triton: cruzain (T. cruzi) inhibition with detergent | 0.43% of 200,000 active | Potency, µM, without a hit: max response, negative = inhibition, usual class: inhibitors | purified cruzain, Z-FR-AMC fluorescence, 0.01% Triton;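 note: plate controls were neutral wells for no effect and buffer without enzyme for full effect; nearly all actives have a fitted effect of over 40% in size; top concentration of the series not given in the record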
# Target sequence (P25779 123-467 limits assumed): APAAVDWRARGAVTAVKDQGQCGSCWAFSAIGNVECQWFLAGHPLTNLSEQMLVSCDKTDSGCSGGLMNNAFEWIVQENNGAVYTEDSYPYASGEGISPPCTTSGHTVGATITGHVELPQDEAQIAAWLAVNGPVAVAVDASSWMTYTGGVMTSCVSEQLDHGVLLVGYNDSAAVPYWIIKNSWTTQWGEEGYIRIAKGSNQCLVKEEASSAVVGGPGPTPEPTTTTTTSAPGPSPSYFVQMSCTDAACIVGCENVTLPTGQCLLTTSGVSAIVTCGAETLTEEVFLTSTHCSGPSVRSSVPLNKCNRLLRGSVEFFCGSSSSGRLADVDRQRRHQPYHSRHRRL
#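 Cruzain (1.5 nM) preincubated 15 min at RT with compound in 100 mM sodium acetate pH 5.5, 5 mM DTT, 0.01% Triton X-100. Reaction started with 2 uM Z-FR-AMC; AMC fluorescence (ex 360/em 450 nm) change over 60 s gave rate.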
# StopGo reporter: FMDV 2A StopGo reporter, luciferase signal; human cells with a luciferase reporter of 2A StopGo recoding; control for the full effect not named in the record; Potency, µM (series often up to 57.9 µM), without a hit: at the highest dose signal change, negative = less light; 1.2% of 410,000 active; active = well fitted falling curve with a large enough effect; inconclusive = small, poorly fitted or top-dose-only effect; inactive = no such curve, though single readings can be large or run the other way; tested in HEK293T cells; note: % is set by controls: 0 for no effect and ±100 for the full control effect; nearly all actives have a fitted effect of over 45% in size; luciferase light after 4 h
# NS1 inh: influenza NS1 inhibition; 0.4% of 270,000 active; Potency, µM (series often up to 46.1 µM), inactives show at the highest dose activity, positive = more growth; AID 2326; S. cerevisiae slowed by influenza A NS1, growth recovery by OD600; active means well fitted rising curve with a large enough effect; inconclusive means small, poorly fitted or top-dose-only effect; inactive means no such curve, though single readings can be large or run the other way; note: nearly all actives have a fitted effect of over 50% in size
#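 Growth recovery, yeast-based: influenza A NS1 expressed in S. cerevisiae causes slow growth, and suppressors are detected by OD600. The parent strain without NS1 is used as positive control.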
# SARS PLP yeast: blocks SARS-CoV papain-like protease in a yeast assay; 0.19% of 330,000 active; AID 485353; S. cerevisiae expressing SARS-CoV PLpro, growth rescue; control for the full effect not named in the record; Potency, µM (series often up to 32.9 µM), for inactives: at the highest dose activity, positive = growth rescue; active means well fitted rising curve with a large enough effect; inconclusive means small, poorly fitted or top-dose-only effect; inactive means no such curve, though single readings can be large or run the other way; note: 0% is about no effect; nearly all actives have a fitted effect of over 55% in size; growth read by luminescence after 48 h
# Cruzain noTriton: blocks cruzain activity in detergent-free assay; Potency, µM, without a hit: max response, negative = inhibition, hits mostly inhibitors; P25779; 2.3% of 200,000 active; AID 1476; purified cruzain, Z-FR-AMC fluorescence, no detergent;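 note: plate controls were enzyme without inhibitor for no effect and buffer without enzyme for full effect; nearly all actives have a fitted effect of over 40% in size; top concentration of the series not given in the record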
#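 Purified cruzain at 1.5 nM, pre-incubated 15 min with compound at room temperature in 100 mM sodium acetate pH 5.5, 5 mM DTT, 0.00005% Triton X-100. Reaction started with 2 uM Z-FR-AMC; AMC fluorescence increase over 60 s gives rate.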
# MARV entry inh: inhibitors of Marburg virus binding or cell entry; Potency, µM (titrated, usually from 37.8 µM), without a hit: top-dose activity change, negative = inhibition, usual class: inhibitors; Marburg virus pseudotyped entry inhibition, cell reporter; control for the full effect not named in the record; about a third of the inactives were read at about 46 µM; 1.8% of 300,000 active; active = well fitted inhibition curve with a large enough effect; inconclusive = small, poorly fitted or top-dose-only effect, or effect the other way; inactive = flat fitted curve, though single readings scatter; tested in HEK293 cells; about a fifth of its hits are not listed in these tables; note: % is set by controls: 0 for no effect and ±100 for the full control effect; luciferase read-out
# RE007 growth inh: less growth of the S. pombe RE007 Vpr strain. S. pombe RE007 Vpr strain, BacTiter-Glo ATP luminescence, 24 h; control for the full effect not named in the record. Potency, µM (top dose mostly 92.2 µM), for the others: at the top dose activity change, negative = less growth. 0.21% of 360,000 active; active = well fitted falling curve with a large enough effect; inconclusive = small, poorly fitted or top-dose-only effect; inactive = no such curve, though single readings can be large or run the other way;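 note: % is set by controls: 0 for no effect and ±100 for the full control effect; nearly all actives have a fitted effect of over 50% in size; the assay follows cell death caused by Vpr and the record does not say whether a fall means rescue or toxicity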
#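 Fission yeast RE007 carrying one integrated HIV-1 vpr copy, seeded at OD 0.01 in PMG+AL medium with 23 nL pinned compound. Grown 24 h at 30 degrees; viability read by BacTiter-Glo luminescence after 5 min.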
# An asterisk follows results filed as active; u = inconclusive; x = not tested or not shown; & = joins results of further samples; [ ] = dose if it differs, or a comment. Unless noted, calls come from the whole dose curve; as a rule, active = well fitted curve in the direction sought with a large enough effect; inconclusive = small, poorly fitted or top-dose-only effect, or another doubt; inactive = no such curve, though single readings can be large; an effect the other way counts as inactive or inconclusive. Potency is the fitted concentration of half-maximal effect. This is a random part of the collection; any-hit rate near 4.7%.
# Under each structure: Lassa entry inh, Cruzain Triton, StopGo reporter, NS1 inh, SARS PLP yeast, Cruzain noTriton, MARV entry inh, RE007 growth inh
CCCc1nc2ccccc2n1CCOC
→ 3%, 1.7%, 20%, 15%, 10%, -8%, u, -9%
Cc1ccccc1CSCC(=O)Nc1c(C)n(C)n(-c2ccccc2)c1=O
→ 6%, 0.5%, 1%, 11%, -14%, 5%, 8%, -16%
O=c1cc(-c2ccccc2)oc2ccccc12
→ x, -9.4%, 48%[activator], x, 5%, 2%, x, 0%
COc1cc(NC(=O)c2ccccc2F)c(OC)cc1NC(=O)CN1CCCCC1
→ 4%, x, 14%, -1%, 4%, x, u, -8%
N/C(=N\OC(=O)CCc1ccccc1)c1ccc(Cl)cc1
→ -13%, -1.5%, x, -51%, -18%, 3%, 13%, -12%
Cc1nn(Cc2ccccc2Cl)c2sc(C(=O)Nc3ccccc3N3CCOCC3)cc12
→ 5%, -6.0%, u, 28%, -4%, -7%, 15%, -1%
Oc1ccc(Cl)cc1C1=NNC(c2cc(Br)cc3c2OCOC3)C1 (configuration not stated)
→ u, x, -3%, 11%, -1%, x, u, 17%
CC(C)CNC(=O)c1ccc2c(c1)C(=O)N(Cc1ccco1)C2=O
→ 15%, x, 8%, -3%, 2%, x, 3%, 4%
COCCn1c(SCC(=O)NC(C)c2ccc(F)cc2)nc2ccccc21 (configuration not stated)
→ 7%[46.1 µM], x, -4%, 3%, 1%, x, -14%[46.1 µM], 22%
Cc1cccc(NC(=S)NC2CC3CCC(C2)N3Cc2ccco2)c1C (configuration not stated)
→ -10%, 7.5%, x, -17%, -5%, -5%, u, 6%
Cc1cc2nc(-c3cccc(NC(=O)COc4ccc(Cl)c(C)c4)c3)oc2cc1C
→ u, -1.5%, 12%, x, x, -3%, u, x
CC(=O)Nc1ccc(S(=O)(=O)NCCC(=O)Nc2ccc(C)c(F)c2)cc1
→ 11%[46.1 µM], x, 21%, 13%, 1%, x, u, 18%
COC(=O)c1sc(N2C(=O)c3oc4ccc(C)cc4c(=O)c3C2c2ccc(O)c(OC)c2)nc1C (configuration not stated)
→ -5%[46.1 µM], -1.6%, -14%, x, x, 13%, 13%[46.1 µM], x
COc1ccc(C)cc1NC(=O)c1[nH]c(C)c(C(C)=O)c1C
→ 4%, 0.0%, -8%, -61%, 3%, -9%, u, -1%
COCCNC(=O)Cn1c(=O)n(CCCC(=O)NCc2ccc3c(c2)OCO3)c(=O)c2sccc21
→ 4.5µM*, x, 5%, 7%, 1%, x, u, 5%
Cc1cc(C(=O)OCc2nc3ccccc3s2)c(C)o1
→ 13%, -2.2%, 0%, -18%, x, 7%, -28%, -17%
CCn1c(COc2ccccc2C)nnc1SCC(=O)N1CCCCC1
→ -3%, 1.0%, 4%, 4%, 2%, 12%, -1%, 18%
COc1ccccc1NC(=O)NCc1cccn1Cc1ccccc1
→ 1%[46.1 µM], -3.6%, 10%, x, x, -3%, x, x
O=C(NCc1ccccn1)C(=O)Nc1cccc2ccccc12
→ -8%[46.1 µM], x, -1%, x, 2%, x, u, 10%
CCCCCC(=O)N1CCN(CCN=CC2=C(O)CC(c3ccc(OC)c(OC)c3)CC2=O)CC1 (configuration not stated)
→ u, -3.5%, -9%&-27%, -12%, 8%, u, 12%&1%, 1%&16%
Cc1cc(NC(=O)COc2ccc(F)c(Cl)c2)no1
→ x, x, 7%, -4%, -4%, x, x, 14%
CC1(C)CC(=O)C(CS(=O)(=O)c2ccccc2)=C(Cl)C1
→ x, x, -17%, 6%, u, x, x, 7%
Cc1cc(C(=O)NN=C2CCCC2)c2ccccc2n1
→ -6%, x, 6%, x, -2%, x, u, -1%
Cc1ccc(S(=O)(=O)Nc2ccc(S(=O)(=O)N3CCOCC3)cc2)cc1
→ -1%, x, 28%, x, x, x, 0%, 11%
COc1cccc(CNC(=O)CN2C(=O)CSc3ccc(S(=O)(=O)N4CCCCC4)cc32)c1
→ x, x, 2%, 6%, 1%, x, x, -13%
COc1cccc(CNC(=O)CN2C(=O)CSc3c2c(C)nn3-c2ccccc2)c1OC
→ -26%[46.1 µM], -3.4%, 0%, x, x, u, x, x
Cc1cc(=O)n(Cc2cccc(Br)c2)c2c1c(C)nn2-c1ccccc1
→ 8%[46.1 µM], 0.0%, -8%, x, x, -5%, x, x
CC(C)c1ccc(NC(=O)c2cc(S(=O)(=O)N3CCCC3)c[nH]2)cc1
→ x, x, -17%, 7%, 1%, x, x, -2%
Cc1nc2ccc(NC(=O)C3CCN(S(=O)(=O)c4cccs4)CC3)cc2s1
→ u, 1.9%, u, -3%, -3%, 9%, u, -7%
Cc1cc(C)n2nc(C(=O)Nc3ccc(N4CCOCC4)cc3)nc2n1
→ 21%, -0.4%, 0%, 4%, x, -9%, 3%, -1%
O=[N+]([O-])C(/C=C(\Cl)[N+](=O)[O-])=C1N(Cc2ccc(Cl)nc2)CCN1Cc1ccc(Cl)nc1
→ -13%, -4.0%, x, -7%, 3%, 2%, -17%, -4%
Cc1c(C)c2cc(Cl)c(O)c(CN3CCN(C)CC3)c2oc1=O
→ 1%, u, -23%, 7%, -3%, u, 5%, 4%
O=C(Nc1ccc(F)cc1)C1CCCN(S(=O)(=O)c2cccc3cccnc23)C1 (configuration not stated)
→ x, -5.4%, u, -33%, -5%, -12%, x, -4%
CCOC(=O)CSc1nc2ccc(NC(=O)COc3ccc(F)cc3)cc2s1
→ 23%[46.1 µM], 1.5%, -13%, x, x, -4%, 8%[46.1 µM], x
COc1ccc(-c2c(C)c3cc(OC(=O)N4CCOCC4)ccc3oc2=O)cc1
→ -28%[46.1 µM], -3.7%, 0%, x, x, 3%, x, x
Cc1ccccc1NC(=O)CCOc1ccccc1
→ 1%[46.1 µM], -3.9%, 51%&30%[activator], -4%, -1%, -4%, x, 12%
CC(=O)N1CCN(C(=O)CCNC(=O)c2ccc(Br)cc2)CC1
→ -18%, x, 4%, x, x, x, 9%[46.1 µM], 2%
COc1cccc(NC(=O)CN2C(=O)NC(c3ccccc3)(c3ccccc3)C2=O)c1
→ -2%, x, -30%, -15%, 3%, x, u, 1%
Cc1ccc(C(=O)NCCCNCCCN(C)C)cn1
→ -2%, -2.9%, -9%, -7%, -5%, -5%, 10%, 8%
CCOc1ccc(C(=O)NNC(=O)c2cc(C)oc2C)cc1
→ 0%, x, 12%, x, -5%, x, 25%, 2%
CCOC(=O)C1CCN(S(=O)(=O)c2ccc(-n3cnnn3)c(C)c2)CC1
→ -10%, 1.2%, x, -7%, 3%, -5%, -2%, 9%
CCOc1ccc(-c2cc(NC(=O)c3ccccc3)c(C(=O)OC)s2)cc1
→ u, -1.9%, -8%, x, x, 8%, 1%[46.1 µM], x
Cc1nn(-c2ccc(N3CCOCC3)nn2)c(C)c1CCC(=O)Nc1ccccc1
→ x, x, 23%, -2%, -1%, x, x, 0%
CC1=CC(C)(C)N(C(=O)c2ccccc2)c2ccc(C)cc21
→ x, -3.6%, u, -22%, -19%, -3%, x, x
Cc1ccc(OCCn2cnc(Cl)c2Cl)cc1
→ x, x, 30%[activator], -12%, 0%, x, 5%[46.1 µM], 56%
CN1CCC(N(C)CC(C)(C)NS(=O)(=O)c2ccccc2)CC1
→ x, x, 0%, 1%, 1%, x, x, 0%
CN1CCN(c2nc3ccccn3c(=O)c2/C=C(\C#N)S(=O)(=O)c2ccccc2)CC1
→ -5%[46.1 µM], x, -13%, -1%, 0%, x, 23%[46.1 µM], -8%
COc1ccc(CNC(=O)c2cnn(-c3ccc(C)cc3)c2C2CCN(C(=O)OC(C)(C)C)CC2)cc1
→ u, -11%, -16%, x, x, 19%, x, x
COc1cccc(CNC(=O)CN2C(=O)N(c3ccc(C)cc3C)S(=O)(=O)c3ccccc32)c1OC
→ u, -2.5%, u, x, x, u, x, x
CN1CCN(C(=O)C2(NC(=O)Nc3cccc(F)c3)CCCCC2)CC1
→ 10%, 5.3%, 12%, 6%, 1%, -3%, 23%, -21%
Cn1c(Cc2csc(N)n2)nnc1SC/C=C/c1ccccc1
→ 1%, 2.4%, 10%, u, -2%, -4%, 16%, -9%
CC1=NNC(=O)C1CCC(=O)N/N=C/c1ccco1 (configuration not stated)
→ 20%[46.1 µM], x, -1%, 13%, 1%, x, 0%[46.1 µM], 4%
CCN(CC)S(=O)(=O)c1ccc(Nc2cc(C)nc3ncnn23)cc1
→ 6%, 1.0%, -21%, -2%, 8%, 8%, 2%, 1%

# As entered above.
# SARS PLP yeast result of Cc1nn(-c2ccc(N3CCOCC3)nn2)c(C)c1CCC(=O)Nc1ccccc1 : -1%
# StopGo reporter result of CCOc1ccc(-c2cc(NC(=O)c3ccccc3)c(C(=O)OC)s2)cc1 : -8%

# Record cards, as listed above. Screens in order: Lassa entry inh | Cruzain Triton | StopGo reporter | NS1 inh | SARS PLP yeast | Cruzain noTriton | MARV entry inh | RE007 growth inh
# COc1cccc(CNC(=O)CN2C(=O)N(c3ccc(C)cc3C)S(=O)(=O)c3ccccc32)c1OC across the screens: u | -2.5% | u | x | x | u | x | x
# CN1CCN(c2nc3ccccn3c(=O)c2/C=C(\C#N)S(=O)(=O)c2ccccc2)CC1 across the screens: -5%[46.1 µM] | x | -13% | -1% | 0% | x | 23%[46.1 µM] | -8%
# Cc1ccc(OCCn2cnc(Cl)c2Cl)cc1 across the screens: x | x | 30%[activator] | -12% | 0% | x | 5%[46.1 µM] | 56%
# Cc1nn(-c2ccc(N3CCOCC3)nn2)c(C)c1CCC(=O)Nc1ccccc1 across the screens: x | x | 23% | -2% | -1% | x | x | 0%
# Cn1c(Cc2csc(N)n2)nnc1SC/C=C/c1ccccc1 across the screens: 1% | 2.4% | 10% | u | -2% | -4% | 16% | -9%
